PrP 5UTR inh: inhibition of PrP 5' UTR reporter expression. cell-based PrP 5' UTR mRNA reporter, plate reader. 340,000 tested, 0.35% active. inhibition, % (test concentration not listed);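 active = every replicate at 50% or more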;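 note: 0 = median of the neutral control wells; tested in H4 reporter cells; numbers are from one replicate; inactives centre near -14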
Bead autofluor: compound fluorescence in toxin protease inhibitor counterscreen; AID 624483; 360,000 tested, 3.1% active; fluorescence intensity (no concentration beside the values); compound autofluorescence counterscreen, microsphere flow cytometry; active compounds read high;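 active = at least 3 SD above the mean of all compounds, about 16000 in these data; inconclusive = too few beads counted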;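 note: 100 nL of 1 mM stock went into each well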
RN4220 kill: kills Staphylococcus aureus RN4220 | inhibition, % (test concentration not listed) | S. aureus RN4220 growth, OD600, 16 h | 330,000 tested, 0.33% active;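 active = z-score of -3 or lower and OD600 up to 0.18 on both plates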;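 note: plate controls were untreated cells for no effect and reference antibiotic for full effect; stock transfer was 100 nL into about 80 µL; one replicate is shown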
Mtb hypoxia inh: reduces hypoxia-regulated biosensor signal in M. tuberculosis | fluorescence inhibition, % (test concentration not listed) | M. tuberculosis hypoxia-regulated fluorescent reporter, fluorescence | 300,000 tested, 0.1% active | AID 1159583;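 active = 35 to 45% if threefold the growth effect, above 45% if 1.5-fold the growth effect; inactive = the rest, general growth blockers included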;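 note: wells of about 50 µL received 100 nL stock; 0% = vehicle wells and 100% = reference inhibitor wells; whole bacteria with a GFP reporter of the hypoxia response; strong numbers were not always called active; many hits fall short of the cut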
Sa ugtP lethal: compounds lethal to S. aureus RN4220 ugtP deletion mutant; OD600 growth, 16 h; some inactives read as strong as hits; growth inhibition, % (concentration not given with the values); 330,000 tested, 0.54% active;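 active = z-score under -3 and OD600 up to 0.15 on both plates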;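 note: plate controls were untreated wells for no effect and antibiotic for full effect; wells of about 80 µL received 100 nL stock; the first replicate is given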
BJeLR viability: kills HRASV12-expressing BJeLR cells | BJeLR (HRASV12) viability, CellTiter-Glo ATP luminescence, 48 h; reference of the scale not given here | inhibition, % (test concentration not listed) | 300,000 tested, 0.17% active;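 active = replicate mean above 50%; inconclusive = above 50% but judged a plate artefact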;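 note: 50 nL library stock added to about 25 µL; numbers are from one replicate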
Mtb hypoxia inh growth: recorded beside Mtb hypoxia inh, whose call it bears; growth inhibition, %; measured here: M. tuberculosis growth (absorbance);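 0% = vehicle and 100% = reference antibiotic; read after six days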
Starred values were filed as active, the others as inactive; u = inconclusive; x = not tested or not shown.

The first 2 entries (preview)
Compound	PrP 5UTR inh	Bead autofluor	RN4220 kill	Mtb hypoxia inh	Mtb hypoxia inh growth	Sa ugtP lethal	BJeLR viability
Cc1ccc(NC(=O)CS(=O)c2ccccc2N)c(C)c1 (configuration not stated)	-41	3620	1.8	10	-5	-10	-4
COc1cccc(CC(=O)Nn2c(C)nc3ccccc3c2=O)c1	-17	6451	5.3	14	10	11	-3

This part in full, from the first entry:
Compound	PrP 5UTR inh	Bead autofluor	RN4220 kill	Mtb hypoxia inh	Mtb hypoxia inh growth	Sa ugtP lethal	BJeLR viability
Cc1ccc(NC(=O)CS(=O)c2ccccc2N)c(C)c1 (configuration not stated)	-41	3620	1.8	10	-5	-10	-4
COc1cccc(CC(=O)Nn2c(C)nc3ccccc3c2=O)c1	-17	6451	5.3	14	10	11	-3
C/C(CC(=O)Nc1cc(C)ccn1)=N\NC(=O)c1cccc(C)c1	-20	4001	x	x	x	x	5
COc1ccc(S(=O)(=O)N2CCOCC2)cc1NC(=O)CSc1n[nH]c(C(C)C)n1	-18	2048	5.9	11	2	-3	-1
O=C1N=c2ccccc2=C1c1sc(=O)[nH]c1O	x	6134	6.1	8	8	-4	-14
COc1ccccc1CN=C1Nc2ccccc2CS1	-21	3533	5.8	-1	10	-1	8
Cc1ccc(C(=O)N2C(CC(=O)Nc3ccc(Cl)cc3)C(=O)NC3CCCCC32)cc1 (configuration not stated)	-1	4986	4.7	6	3	3	12
O=C(CSc1cn(CCNC(=O)c2cccs2)c2ccccc12)NCc1ccccc1	27	6772	5.4	-4	0	3	-10
CCOC(=O)C(=Cc1ccc(-c2ccsc2C(=O)OC)o1)C(=O)OCC	-20	22339*	-0.8	6	8	9	6
CC1(C)CC(=O)C=C(c2ccc3[nH]ccc3c2)C1	-31	3568	5.4	1	0	0	-1
CCc1nnc(NC(=O)c2cc3c(s2)CCCCC3)s1	-77	4775	3.8	-3	5	6	6
CSc1ccc(S(=O)(=O)NCc2ccccc2Cl)cc1	-36	11002	7.7	-3	6	-9	6
O=C(c1ccco1)N1CCN(S(=O)(=O)c2ccccc2[N+](=O)[O-])CC1	-26	4523	4.4	4	-1	9	3
CCOC(=O)C1=C(COC(=O)c2ccc(C)s2)NC(=O)NC1C (configuration not stated)	-9	u	5.2	0	0	4	-23
CN(N=Cc1ccc(N(C)C)cc1)C1=NS(=O)(=O)c2ccccc21	x	x	11	8	3	-3	x
O=C(CCl)Nc1cc(S(=O)(=O)N2CCCCCC2)ccc1Cl	7	2006	8.7	16	9	4	4
Cc1cc(C)cc(N(CC(=O)NCC2CCCO2)C(=O)CN2C(=O)COc3ccccc32)c1 (configuration not stated)	-32	9711	5.2	8	5	1	-5
COc1cc(C(=O)N2CCc3ccccc32)c([N+](=O)[O-])cc1OC	-8	4110	1.8	8	9	2	14
CCCn1c(N/N=C\C=C\c2ccccc2)nc2c1c(=O)[nH]c(=O)n2C	-28	4139	x	x	x	x	12
COc1cccc(-c2nc(N3CCN(Cc4ccccc4)CC3)c3ccccc3n2)c1O	-3	6134	0.3	3	-2	8	x
CCCOc1ccc(NC(=O)CC2C(=O)N(CC)C(=S)N2Cc2cccs2)cc1 (configuration not stated)	-14	21389*	13	12	8	5	-8
C=CCNC(=O)/C(=C/c1cn(-c2ccccc2)nc1-c1cccc([N+](=O)[O-])c1)NC(=O)c1ccccc1	-9	2896	x	x	x	x	-6
CCCCC1=C([O-])C2N=CC=CC2=[N+](c2ccccn2)C1=O (configuration not stated)	-26	9441	4.5	4	-2	1	6
CCn1c(=O)c2sccc2n(Cc2cccc(C)c2)c1=O	-7	3793	2.3	4	19	63	-6
COC(=O)CCCC1=CC2=C(c3ccccc3)C(=O)C(C)(OC(=O)C3CCCC3)C(=O)C2=CN1C1CCCCC1 (configuration not stated)	-10	2712	0.8	18	5	2	1

(continued)
Compound	PrP 5UTR inh	Bead autofluor	RN4220 kill	Mtb hypoxia inh	Mtb hypoxia inh growth	Sa ugtP lethal	BJeLR viability
Cc1ccc(NC(=O)N2CCC(C(=O)NCCC3=CCCCC3)CC2)cc1	-20	16684*	4.6	6	2	6	-15
Cc1onc(-c2ccccc2Cl)c1C(=O)Nc1cccnc1	-3	20230*	3.5	-1	4	0	-14
O=C(COC(=O)c1ccc(O)cc1O)Nc1ccc(Cl)cn1	6	6117	3.9	-7	3	3	-2
CCOc1ccc(/C(O)=C2/C(=O)C(=O)N(CCN(CC)CC)C2c2ccco2)cc1 (configuration not stated)	-42	2807	2.0	7	2	1	-3
COC(=O)c1ccccc1S(=O)(=O)NNC(=O)c1ccccc1-n1cccc1	-30	4559	1.8	2	-6	-1	2
CC(=O)c1ccc(NC(=O)c2ccc(CNc3c(N4CCOCC4)c(=O)c3=O)cc2)cc1	-7	4390	1.9	-3	0	4	-8
COC(=O)c1cc(S(=O)(=O)N(Cc2ccccc2)C(C)(C)C)c[nH]1	-9	4076	7.2	4	-2	9	6
CCN(CC)CCC(=O)N1c2ccccc2CCc2ccc(NC(=O)OC(C)C)cc21	-16	3740	2.8	-1	12	8	17
Cc1ccc(S(=O)(=O)N(C(=O)c2ccncc2)c2ccc(OC(=O)c3ccncc3)cc2)cc1	-17	2012	7.1	2	7	2	-14
CCOc1ccc2nc(N3CCCC(C(=O)NC4CCCC4)C3)sc2c1 (configuration not stated)	-32	5949	3.4	2	-4	8	7
O=CNc1ccc(OP(=O)(Oc2ccccc2)Oc2ccccc2)cc1	-1	3308	1.7	-8	-4	-6	4
CCn1ccnc1C(O)(c1ccccc1)c1ccccc1	-26	3037	4.1	3	1	5	-2
CC(C)c1ccccc1OCCCCCN1CCOCC1	x	3766	6.8	11	2	5	1
Cc1ccc(CNC(=O)C2CCC(=O)N(CCc3ccccn3)C2)s1 (configuration not stated)	-20	5435	-4.4	-3	-4	-6	6
Cc1ccc(OCCC(=O)N(CC(=O)Nc2ccccc2C(F)(F)F)Cc2ccco2)cc1	-19	5422	5.0	9	-3	10	-4
O=C(CSc1nnnn1-c1ccccc1)CSc1nnnn1-c1ccccc1	-20	6207	3.7	9	2	4	3
Cc1ccc(C(=O)N/C(=C/c2cn(-c3ccccc3)nc2-c2ccccc2)C(=O)O)cc1	17	u	2.5	10	11	4	-1
Cc1c(CN2CCC(CO)(CCOc3ccccc3)CC2)[nH]c2ccc(Cl)cc12	-2	3348	98*	2	1	95*	26
CCN(CC)c1nc(C(N)=O)cc(-c2ccccc2)n1	-5	4887	-1.2	x	x	-2	8
CC(NC(=O)c1ccc(Cl)cc1)C(=O)NCCc1ccc(S(N)(=O)=O)cc1 (configuration not stated)	x	x	2.5	4	11	-3	x
COc1cccc2cc(C(=O)Nc3ccccc3C)c(=NO)oc12	x	x	1.3	0	1	-6	x
Cn1cccc1C(=O)NC(=O)COC(=O)CC12CC3CC(CC(C3)C1)C2	-19	2501	x	x	x	x	10
CCCNS(=O)(=O)c1ccc(OCC(=O)Nc2ccc3c(c2)OCCO3)c(C)c1	-14	4740	1.0	-5	0	8	8
CCCCN1C(=O)C(O)(CC(=O)c2ccccc2OC)c2ccccc21 (configuration not stated)	17	4345	2.2	x	x	8	-1
CC(C)C(NC(=O)c1ccc(Cl)cc1Cl)C(=O)N1CCN(S(=O)(=O)c2ccccc2)CC1 (configuration not stated)	-8	3795	2.0	2	-1	3	x

3 records picked at random from the list so far, as already listed:
Compound	PrP 5UTR inh	Bead autofluor	RN4220 kill	Mtb hypoxia inh	Mtb hypoxia inh growth	Sa ugtP lethal	BJeLR viability
O=CNc1ccc(OP(=O)(Oc2ccccc2)Oc2ccccc2)cc1	-1	3308	1.7	-8	-4	-6	4
COC(=O)c1cc(S(=O)(=O)N(Cc2ccccc2)C(C)(C)C)c[nH]1	-9	4076	7.2	4	-2	9	6
CC(C)C(NC(=O)c1ccc(Cl)cc1Cl)C(=O)N1CCN(S(=O)(=O)c2ccccc2)CC1 (configuration not stated)	-8	3795	2.0	2	-1	3	x

Carrying on:
Compound	PrP 5UTR inh	Bead autofluor	RN4220 kill	Mtb hypoxia inh	Mtb hypoxia inh growth	Sa ugtP lethal	BJeLR viability
O=C(CCn1c(=S)oc2ccccc21)Nc1cccc(F)c1	5	2540	x	x	x	x	1
CS(=O)(=O)N1CCN=C1SCc1ccc(Br)cc1	-13	5168	2.9	11	0	10	4
Cc1ccc(CNc2ccc([N+](=O)[O-])cc2C(N)=O)cc1	-23	3450	0.9	3	8	10	x
Cc1ccc(Sc2cc(Cl)nc(N)n2)cc1	-27	2855	0.5	x	x	12	-4
CCOc1ccc(OCc2ccc(C(=O)N3CCCCC3)o2)cc1	-2	6202	6.2	8	2	4	1
COc1ccc(C(C)C)cc1S(=O)(=O)Nc1ncn[nH]1	-9	3720	12	-3	-10	6	-9
COc1ccc(C(=O)COC(=O)c2sccc2C)cc1OC	-87	x	7.7	8	4	3	x
Cc1ccccc1NC(=O)CN1C(=O)COc2ccc(Cl)cc21	-3	5586	2.6	x	x	1	-6
COCc1cc(Sc2cccc(Cl)c2Cl)nc(-c2ccccc2)n1	-12	4086	-11	x	x	91*	8
O=C(CCSCCc1ccccn1)Nc1ccc(Br)cc1F	-14	2582	0.8	7	8	9	-2
COc1ccc(OC)c(/C=N/NC(=O)CN2CCSCC2)c1	-12	2524	x	x	x	x	11
CC(C)(C)C(=O)N1CCN(c2nc3ccc(Cl)cc3s2)CC1	-56	3649	3.8	21	13	-9	4
O=C(CCNC(=O)N1CCn2c1nc1ccccc12)NCc1ccccc1	-1	5054	3.0	10	4	1	-3
COc1ccc(CC(=O)Nc2ccccc2C(=O)N2CCOCC2)cc1OC	-35	2187	3.6	9	-1	4	-1
O=C(CCc1nc2ccccc2c(=O)[nH]1)NNC(=O)c1ccccc1Cl	13	5892	4.5	1	3	0	0
CC1CCC(CN2C(Nc3ccccc3)=NC[C@@H]2C)CC1 (some centres not stated)	-28	3471	x	x	x	x	-11
Cc1ccc(-c2csc(NC(=O)/C=C/c3ccco3)c2C(=O)O)cc1	0	2597	8.3	-7	-4	7	-4
COC(=O)c1ccc(C(=O)N2CCCC(Nc3ccc(F)c(F)c3)C2)cc1 (configuration not stated)	-23	6270	2.1	11	5	-4	-16
CCC(C)c1ccc(NC(=S)NC2CCN(Cc3ccccc3)CC2)cc1 (configuration not stated)	-11	2688	-3.4	3	-1	-5	1
NCCCn1c(C(=O)c2ccc(Cl)cc2)c2ccc(C(F)(F)F)cc2[n+]1[O-]	-4	4398	x	x	x	x	0
CC(=O)Nc1ncc(Cc2cc(Cl)ccc2Cl)s1	12	2465	7.7	7	14	-2	-3
O=C(N/N=C\c1ccccn1)c1cccc(C(=O)N/N=C\c2ccccn2)n1	-22	7077	x	x	x	x	1
CCOc1ccc(NC(=O)CN(C)C(=O)c2ccccc2OCCOc2ccccc2)cc1OCC	-17	2914	5.7	4	-2	0	x
O=C(NCCc1ccccc1)/C(=C\c1ccc([N+](=O)[O-])cc1)NC(=O)c1ccc(Br)cc1	3	7242	x	x	x	x	3
CN1CCN(CC(O)(c2ccc(Cl)cc2)c2ccc(Cl)cc2)CC1	-27	4170	-2.2	5	15	58	11
